# Source: PubChem
# miR-21 FLuc = raises the signal of a miR-21 reporter; Potency, µM (series often up to 38.3 µM), for inactives: at the top dose reporter change, positive = more light; HeLa miR-21 FLuc reporter, luciferase, 48 h; 340,000 tested, under 10 active; active = well fitted rising curve with a large enough effect; inconclusive = small, poorly fitted or top-dose-only effect; inactive = no such curve, though single readings can be large or run the other way;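 also: % of control where 0% means no effect; miR-21 action dims this reporter so a rising signal means less miR-21 action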
#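 HeLa miR-21-FLuc reporter line, endogenous miR-21; 2000 cells/well in DMEM/10% FBS; compound titration up to ~40uM final, 48 h, 37 degree Celsius; luciferase detection reagent, 15 min lysis, CCD luminescence.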
# Active calls of the source: *; ? = inconclusive; [ ] = remark or other dose. These rows are one share of the data. The share of hits here may be higher or lower than overall.
SMILES,miR-21 FLuc
CC(=O)c1cccc(NC(=O)CSc2nc3ccccc3nc2Cc2ccc(F)cc2)c1,-1.9%
CC1CCN(C(=O)c2ccc3c(c2)N(Cc2ccccc2)C(=O)c2ccccc2S3(=O)=O)CC1,23.6%
Clc1cccc(-c2ccc(CNCCSc3nnnn3-c3ccccc3)o2)c1,-7.3%
CCOc1ccccc1NC(=O)C(c1ccccc1)N1Cc2ccccc2C1=O (centres undefined),-2.6%
COc1ccc(CCNC(=O)c2cc(S(=O)(=O)N3CCCC(C)C3)cn2C)cc1OC (centres undefined),-2.7%
COc1ccc(-c2c3c(nc4sc(C(=O)Nc5ccccc5F)c(N)c24)CC(C)(C)CC3=O)cc1,-4.7%
Cn1cc(S(=O)(=O)N2CCCCC2)cc1C(=O)Nc1ccc(OC(F)(F)F)cc1,-3.4%
O=C(NCC1CCCO1)c1c[nH]c2ccc(S(=O)(=O)Nc3cccc(C(F)(F)F)c3)cc2c1=O (centres undefined),-0.9%
Cc1nc(C)c(-c2ccc(SCC(=O)Nc3ccc(Cl)c(Cl)c3)nn2)s1,13.7%
COCCn1c(SCC(=O)Nc2cccc(C)c2C)nc2c(oc3ccccc32)c1=O,1.0%
CCNC(=O)Cc1ccc(NC(=O)N2CCCCc3ccccc32)cc1,0.5%
CCc1ccc(S(=O)(=O)c2nnn3c2nc(NC2CCCCCC2)c2sccc23)cc1,-12.5%
O=C(Nc1c(C(=O)Nc2cccc(C(F)(F)F)c2)oc2ccccc12)c1cc(=O)c2ccccc2o1,-13.2%
COc1cccc(/C=C/c2nc(C#N)c(N3CCC(C(N)=O)CC3)o2)c1,-20.6%
CCOC(=O)c1ccc(N2C(=O)c3n[nH]c(-c4cccs4)c3C2c2ccc(CC)cc2)cc1 (centres undefined),?

# Next section, overlapping the part above by 7 compounds.
SMILES,miR-21 FLuc
Cc1nc(C)c(-c2ccc(SCC(=O)Nc3ccc(Cl)c(Cl)c3)nn2)s1,13.7%
COCCn1c(SCC(=O)Nc2cccc(C)c2C)nc2c(oc3ccccc32)c1=O,1.0%
CCNC(=O)Cc1ccc(NC(=O)N2CCCCc3ccccc32)cc1,0.5%
CCc1ccc(S(=O)(=O)c2nnn3c2nc(NC2CCCCCC2)c2sccc23)cc1,-12.5%
O=C(Nc1c(C(=O)Nc2cccc(C(F)(F)F)c2)oc2ccccc12)c1cc(=O)c2ccccc2o1,-13.2%
COc1cccc(/C=C/c2nc(C#N)c(N3CCC(C(N)=O)CC3)o2)c1,-20.6%
CCOC(=O)c1ccc(N2C(=O)c3n[nH]c(-c4cccs4)c3C2c2ccc(CC)cc2)cc1 (centres undefined),?
Cc1cccc(-n2ncc(C(=O)Nc3ccc4c(c3)OCO4)c2C2CCN(C(=O)OC(C)(C)C)CC2)c1,7.0%
Cc1cccc(CCNC(=O)CCc2c(C)nc3c(-c4ccc(F)cc4)c(C)nn3c2C)c1,0.0%
COC(=O)c1ccccc1NC(=O)NCc1ccc2c(c1)CCN2C(=O)c1ccccc1,11.3%
Cc1cc(=O)n2nc(N3CCC(C(=O)NCCCOC(C)C)CC3)sc2n1,-5.6%
CCC(=O)N1CCc2cc(Br)cc(S(=O)(=O)CCC(=O)NCCc3ccccc3Cl)c21,7.0%
CC(C)CCSc1nnc2n(-c3ccccc3)c(=O)c3c4c(sc3n12)CC(C)CC4 (centres undefined),0.9%
CCc1cccc(-n2c(=O)c3cccnc3n2CC(=O)Nc2c(C)cc(C)cc2C)c1,-0.1%
CCOc1ccccc1CNC(=O)Cc1ccc(NC(=O)N2CCCCc3ccccc32)cc1,29.1%
CCOc1ccc(CCNC(=O)CS(=O)(=O)Cc2nc(-c3cccc(Cl)c3)oc2C)cc1,9.0%
O=C(COc1ccccc1Cl)N(Cc1ccco1)Cc1ccco1,-6.5%
CC(C)(C)NC(=O)c1cnn2c(C(F)F)cc(-c3ccccc3)nc12,-7.2%
CCOc1ccc(CN2C(=O)c3ccccc3Sc3ccc(C(=O)NC4CCC(C)CC4)cc32)cc1 (centres undefined),-9.4%
CCOc1ccccc1Nc1sc(C(=O)c2ccc(Cl)cc2)c(N)c1C#N,13.3%
COc1ccc([C@]23Cc4ccccc4C(O2)c2c(c4ccc(OC)cc4oc2=O)O3)cc1,-58.6%[7.66 µM]
COC(=O)c1ccc(NC(=O)CC2C(=O)N(c3cccc(OC)c3)C(=O)N2Cc2cccs2)cc1 (centres undefined),9.7%

# Next part (2 carried over from the part before).
SMILES,miR-21 FLuc
COc1ccc([C@]23Cc4ccccc4C(O2)c2c(c4ccc(OC)cc4oc2=O)O3)cc1,-58.6%[7.66 µM]
COC(=O)c1ccc(NC(=O)CC2C(=O)N(c3cccc(OC)c3)C(=O)N2Cc2cccs2)cc1 (centres undefined),9.7%
N#Cc1c(C(F)(F)F)cc(-c2cccs2)nc1SCC(=O)Nc1cccc(Cl)c1,-4.4%
Cc1cccc(NC(=O)C2CCCN(S(=O)(=O)c3cccc4nonc34)C2)c1C (centres undefined),3.0%
CCOc1ccc(-c2cn3c(n2)sc2cc(C(=O)NC4CCCc5ccccc54)ccc23)cc1 (centres undefined),0.1%
CN1CCN(CCNC(=O)c2cnn(-c3cccc(Cl)c3)c2C2CCN(C(=O)OC(C)(C)C)CC2)CC1,2.5%
CCC1CCCCN1Cc1c(O)ccc2c(=O)c(Oc3ccccc3Cl)c(C(F)(F)F)oc12 (centres undefined),6.2%
Cc1ccc(S(=O)(=O)C(CNC(=O)COc2ccc(Cl)cc2)c2ccco2)cc1 (centres undefined),0.1%
CC(=O)N1CCc2cc(Br)cc(S(=O)(=O)N3CCC(C(=O)Nc4cccc(C)c4C)CC3)c21,-2.8%
COc1ccc(/C=C/c2nc(C#N)c(NCc3ccc(F)cc3)o2)cc1OC,22.4%
CCCCOc1ccccc1C1CC(=O)Nc2cc(OC)c(OC)cc21 (centres undefined),-5.0%
COC(=O)c1ccc(NC(=O)C(=O)NCCc2csc(-c3ccc(F)cc3)n2)cc1,1.0%
CC(=O)c1c(C)n(-c2cccc(Cl)c2)c2ccc(OC(=O)c3ccccc3)cc12,-3.4%
O=C1CC(c2ccccc2)Sc2ccccc2N1Cc1ccc(F)cc1 (centres undefined),28.8%
Cc1cc(C)cc(NS(=O)(=O)c2ccc3c(c2)OCC(C(=O)N2CCCC2)O3)c1 (centres undefined),6.4%
Cc1ccc(NCc2cc3cc4c(cc3n(CC(=O)Nc3ccc(F)cc3F)c2=O)OCCO4)cc1,-17.4%
Cc1nn2c(-c3ccccc3)cc(-c3ccccc3)nc2c1-c1ccc(Cl)cc1,-0.4%
COc1ccc(Cn2cc(C(=O)c3ccc(OC)cc3)c(=O)c3cc4c(cc32)OCCO4)cc1,-0.9%
Cc1ccc(CN2CCCn3nc(C(=O)NCCc4cccc(C)c4)cc3C2=O)cc1,1.2%
CCCCOc1ccccc1NC(=O)CC1Sc2ccccc2NC1=O (centres undefined),-6.0%
O=c1oc2c3c(ccc2c2ccccc12)OCN(Cc1ccc(Cl)cc1)C3,-5.3%
CCc1ccc(-n2nc(C)c3c(C)cc(=O)n(CC(=O)Nc4ccc(F)cc4C)c32)cc1,4.7%
CCOc1ccc(NC(=O)Cn2cnc3c(oc4ccccc43)c2=O)cc1,-12.5%
Cc1cc(C)c(Nc2nc3ccccc3n3c(C)nnc23)c(C)c1,0.8%
Cc1ccc(S(=O)(=O)N(CC(=O)Nc2ccc(F)cc2F)Cc2ccc(F)cc2)cc1,-5.2%
CCc1ccc(NC(=O)c2ccc(F)c(S(=O)(=O)NCc3ccc(Cl)c(Cl)c3)c2)cc1,5.3%
CCc1ccccc1NC(=O)Cn1c(=O)n(CC2CCC(C(=O)NCCc3ccccc3)CC2)c(=O)c2ccccc21 (centres undefined),-0.9%
CCN1CCN(CCCNC(=O)c2cc3c(=O)n(C)c4ccccc4c3s2)CC1,-12.4%
Cn1c(=O)c2sccc2n2c(CCC(=O)N3CCN(c4ccccc4)CC3)nnc12,-1.0%
CCc1ccc(-n2nc(CO)c(C(=O)NCc3cccs3)n2)cc1,-6.4%
COc1ccc(CCNC(=O)c2cc3c(=O)n4ccccc4nc3n2C)cc1,24.6%
CCc1cccc(NC(=O)CN2CCCN(Cc3cccc(C)c3)S2(=O)=O)c1,0.2%
CSc1ncc(Cl)c(C(=O)Nc2c(C(=O)c3ccc(C)c(F)c3)oc3ccccc23)n1,0.1%
COc1ccc(Cn2c(SCc3ccc(C(=O)NCc4ccccc4F)cc3)nc3cccnc32)cc1,0.4%
CCCCOc1c(Cl)cc(C(=O)N(Cc2ccc(C)o2)C2CCS(=O)(=O)C2)cc1Cl (centres undefined),?
COc1ccc(C)cc1NC(=O)N1CCN(S(=O)(=O)c2ccc3c(ccn3C)c2)CC1,14.1%
CCN(Cc1ccccc1)C(=O)Cn1c(=O)oc2cc(S(=O)(=O)N3CCCCCC3)ccc21,16.3%
CCCCn1c(=N)n(CCCOc2ccc(F)cc2)c2ccccc21,?
Cc1ccc(-n2ncc(C(=O)NC3CCCC3)c2C2CCN(C(=O)OC(C)(C)C)CC2)c(C)c1,13.6%
Cc1nn(-c2ccccc2)c(-n2cccc2)c1C(=O)NCc1ccccc1Cl,?
COc1ccc(CCN2C(=O)N(c3ccccc3)C(=O)C2CC(=O)Nc2ccccc2)cc1 (centres undefined),6.6%
COc1ccc(OC)c(NC(=O)C(C)n2nc(C)c3c(C)n(-c4ccccc4)nc3c2=O)c1 (centres undefined),-2.6%
Cc1ccc(-c2nc(CS(=O)(=O)CC(=O)NC(C)CCc3ccccc3)c(C)o2)cc1 (centres undefined),8.5%
CCOC(=O)c1cc2c(=O)n3ccccc3nc2n(Cc2ccco2)c1=NC(=O)c1c(F)cccc1Cl,-1.4%
O=C(Nc1ccc(Oc2ccccc2)nc1)C1CCCCN1Cc1ccc(O)cc1 (centres undefined),-7.3%
CCCCN(CC)CCCNC(=O)Cn1ncc2c3ccccc3n(Cc3ccc(F)cc3)c2c1=O,-0.8%
COc1cccc(NC(=O)C(Cc2ccccc2)NS(=O)(=O)c2ccc3c(c2)oc(=O)n3C)c1 (centres undefined),8.6%

# Three entries from above, sorted by their value in miR-21 FLuc, descending.
SMILES,miR-21 FLuc
CCN(Cc1ccccc1)C(=O)Cn1c(=O)oc2cc(S(=O)(=O)N3CCCCCC3)ccc21,16.3%
CSc1ncc(Cl)c(C(=O)Nc2c(C(=O)c3ccc(C)c(F)c3)oc3ccccc23)n1,0.1%
COc1ccc(OC)c(NC(=O)C(C)n2nc(C)c3c(C)n(-c4ccccc4)nc3c2=O)c1 (centres undefined),-2.6%

# Following part
SMILES,miR-21 FLuc
CC(C)Oc1ccc(CNC(=O)Nc2ccc3c(c2)N(C)C(=O)c2ccccc2S3)cc1,-7.4%
Cc1oc(-c2ccc(C(=O)NCc3ccccc3Cl)cc2)nc1CN1CCc2ccccc21,17.3%
CCOc1ccc(-c2cc3c(=O)n(CC(=O)Nc4c(C)cccc4C)ccn3n2)cc1,-6.8%
Cc1ccc(C)c(N2CCN(C(=O)CCC(=O)Nc3ccc4nc(N5CCCCC5)cc(C)c4c3)CC2)c1,30.0%
O=C(Cn1c(=O)n(Cc2nc(-c3ccccc3)no2)c(=O)c2ccccc21)Nc1cccc(Cl)c1,17.1%
O=C(NCc1ccccc1)c1nnc(Cc2cccc(F)c2)o1,-11.5%
Cc1ccc(-c2nc3c(c(SCC(=O)Nc4cccc(C(=O)O)c4)n2)Cc2cccc(C)c2O3)cc1,-7.5%
CCOC(=O)CC(NC(=O)Cn1nnc(-c2ccc(C(F)(F)F)cc2)n1)c1ccc(OC)cc1 (centres undefined),0.5%
Cc1ccc(-c2nnc(Nc3ccc(Cl)cc3)c3ccccc23)cc1S(=O)(=O)NCC1CCCO1 (centres undefined),12.9%
CCCc1nn2c(=O)cc(COC(=O)c3ccccc3NC(=O)c3ccc(OCC)cc3)nc2s1,-12.9%
Cc1cc(C)cc(OC(C)C(=O)Nc2nc3c(s2)CCCC3)c1 (centres undefined),-4.8%
O=C(NCc1ccco1)c1ccc2c(c1)N(Cc1c(F)cccc1Cl)C(=O)c1ccccc1S2,4.2%
O=C(OCC1CCCO1)c1ccc2c(c1)N(Cc1cccc(F)c1)C(=O)c1ccccc1S2(=O)=O (centres undefined),-0.6%
CCN(CCCNC(=O)c1ccc(Sc2ccc(C)cc2)c(NC(C)=O)c1)c1cccc(C)c1,12.3%
CCOC(=O)c1c(C)[nH]c(C)c1S(=O)(=O)N1CCCC(C(=O)NCc2ccccc2Cl)C1 (centres undefined),0.9%
Cc1ccc(CNC(=O)C(=O)NCC(c2ccc3c(c2)OCO3)N2CCOCC2)cc1 (centres undefined),-1.2%
COc1ccccc1NC(=O)C1=C(C)Nc2c(C(=O)Nc3cccc(C)c3)cnn2C1c1ccccc1Cl (centres undefined),3.7%
CC(C)(C)OC(=O)N1CCC(c2c(C(=O)NCCN3CCC(Cc4ccccc4)CC3)cnn2-c2ccc(F)cc2)CC1,?
CCCCN(C)S(=O)(=O)c1cc(-c2cc(C)no2)ccc1C,9.7%
Cc1cc(C)n2nc(SCC(=O)Nc3cccc(C(F)(F)F)c3)nc2n1,2.4%
Cc1ccc(CNC(=O)c2ccc(NC(=O)N3CCSc4ncccc43)cc2)cc1,-6.6%
O=C(Cn1c(=O)n(Cc2ccco2)c(=O)c2sc3ccccc3c21)Nc1ccccc1C(F)(F)F,-0.2%
COc1ccc(NC(=O)c2nnn(Cc3nc(-c4cc(OC)c(OC)c(OC)c4)oc3C)c2C)cc1,1.5%
Cc1c(Cl)cccc1NC(=O)CCn1nc(C)c2c(C)n(-c3ccccc3)nc2c1=O,0.4%
CCCCc1c(C)nc2c(-c3ccc(Cl)cc3)c(C)[nH]n2c1=O,?
O=C(Cn1ncc2c3ccccc3n(Cc3ccccc3F)c2c1=O)NCCCc1ccccc1,-0.9%
